Compound activity deposited in PubChem BioAssay by several laboratories.
FGF22 binding – binders of recombinant human FGF22 by thermal shift; Q9HCT0; SYPRO orange fluorescence; percent of sucrose octasulfate shift, DMSO zero; calls only at 9.99 µM; 340,000 compounds, 1.5% hits; AID 651658;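 active = melting point raised past a set limit in the mean and every replicate; inconclusive = no clear call; three in four hits are not shown here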
Target sequence (Q9HCT0 whole entry, looked up): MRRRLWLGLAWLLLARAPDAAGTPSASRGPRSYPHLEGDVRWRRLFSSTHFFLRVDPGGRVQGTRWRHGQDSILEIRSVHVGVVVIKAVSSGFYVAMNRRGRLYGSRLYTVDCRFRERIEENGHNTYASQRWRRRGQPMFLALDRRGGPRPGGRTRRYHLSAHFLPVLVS
E coli growth – E. coli growth inhibition | Escherichia coli growth, OD600, 23 h; stronger effect = lower value | OD600 absorbance (concentration not given with the values) | 330,000 compounds, 0.21% hits | AID 1053175;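 active = OD600 absorbance below the run mean of sample wells minus 3.6 SD, in any replicate, cut at about 0.56 in these data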;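 also: stock transfer was 300 nL into about 60 µL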
Vif TR-FRET – HIV-1 Vif–A3G interaction blockers – biochemical, TR-FRET, GST-Vif 1-94, biotin-A3G peptide, dose response retest, primary screen (AID 1117319); TR-FRET GST-Vif / biotin-A3G peptide binding; higher % means a stronger effect; test concentration not given here; strong numbers were not always called active; one-dose inhibition, %; IC50 in µM for titrated hits; 260,000 compounds, 0.57% hits;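 active = above the screen mean plus three standard deviations and confirmed in dose response; inconclusive = results disagree or hit not tested in dose response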;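 also: Vif residues 1-94 fused to GST binding biotinylated APOBEC3G peptide 110-148; 0% = full assay without inhibitor and 100% = GST in place of GST-Vif; retest series ran down from 100 µM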
AF4-AF9 inh – inhibitors of human MLL-AF4/AF9 interaction; AlphaScreen, biotin-AF4 peptide binding to FLAG-AF9; inhibition, % at 10 µM; 350,000 compounds, 0.47% hits; P42568;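 active = every replicate reaching a set inhibition limit, whatever the replicate mean, cut at about 25% in these data; inconclusive = mean inhibition reaches that limit but some replicates miss it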;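 also: 0% = plate neutral control median and 100% = total signal loss; the record names both 10 and 1 µM as test concentration; the first replicate is given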
Target sequence (P42568 whole entry, looked up): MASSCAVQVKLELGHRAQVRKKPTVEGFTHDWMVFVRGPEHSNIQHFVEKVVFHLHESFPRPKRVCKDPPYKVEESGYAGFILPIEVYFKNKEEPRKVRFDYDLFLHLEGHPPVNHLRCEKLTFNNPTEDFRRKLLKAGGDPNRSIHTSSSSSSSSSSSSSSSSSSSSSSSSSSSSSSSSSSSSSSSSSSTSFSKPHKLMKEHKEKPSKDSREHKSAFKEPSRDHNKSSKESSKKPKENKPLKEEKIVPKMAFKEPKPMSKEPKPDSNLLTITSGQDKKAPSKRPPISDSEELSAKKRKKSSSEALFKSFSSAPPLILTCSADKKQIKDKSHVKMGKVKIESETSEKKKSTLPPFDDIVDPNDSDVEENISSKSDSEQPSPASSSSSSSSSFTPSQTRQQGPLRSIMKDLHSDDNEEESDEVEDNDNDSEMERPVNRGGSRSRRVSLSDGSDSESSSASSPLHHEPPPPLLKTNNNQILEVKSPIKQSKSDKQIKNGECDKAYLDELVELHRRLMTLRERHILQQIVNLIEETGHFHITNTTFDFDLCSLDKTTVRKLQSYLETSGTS
RanGTP-Imp inh – inhibitors of RanGTP-importin-beta interaction, primary screen, biochemical, FRET, CFP-Ran, YFP-importin-beta, homogeneous; cell-free CFP-Ran/YFP-importin-beta FRET ratio; inhibition, % (no concentration beside the values); 300,000 compounds, 1.1% hits;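 active = most replicates above 15%; inconclusive = exactly half above 15%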;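 also: 0% = DMSO wells and 100% = Ran loaded with GDP instead of GTP; wells of about 40 µL received 100 nL stock; the first replicate is given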
HNF4A DNA FP – change in binding of human HNF4 alpha to DNA; P41235; HNF4a-FITC DNA binding, fluorescence polarization, 1 h; activity change, % at 10 µM; 360,000 compounds, 0.3% hits; AID 1224865; in the data active = activity change above about 30%, passing the limit was not always enough;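 also: controls were the assay level and a saturating level of protein; the project sought stronger binding though the title names inhibitors; some compounds called inactive have numbers as strong as hits; positive values seem to mean higher polarization but the record does not say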
UCH37 inh – human UCH37 deubiquitinating enzyme inhibition; Q9Y5K5; inhibition, % (no concentration beside the values); AID 588478; purified proteasome/UCH37, Ub-AMC cleavage fluorescence; 330,000 compounds, 0.33% hits;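 active = mean of two replicates above 20%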;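 also: 0% = compound-free wells with enzyme and 100% = wells lacking proteasome; stock transfer was 100 nL into about 20 µL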
Target sequence (Q9Y5K5 whole entry, looked up): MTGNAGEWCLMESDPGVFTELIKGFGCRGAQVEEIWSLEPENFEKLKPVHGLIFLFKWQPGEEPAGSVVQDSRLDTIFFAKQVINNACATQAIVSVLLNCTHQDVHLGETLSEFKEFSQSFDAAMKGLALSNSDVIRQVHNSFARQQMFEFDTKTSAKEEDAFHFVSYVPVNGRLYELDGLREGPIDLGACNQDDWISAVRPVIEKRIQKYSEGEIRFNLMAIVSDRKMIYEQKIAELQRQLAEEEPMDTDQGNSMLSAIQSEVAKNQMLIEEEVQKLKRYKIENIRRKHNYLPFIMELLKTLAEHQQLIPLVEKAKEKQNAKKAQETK
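assay system = human UCH37 enzyme supplied as purified proteasome complex | amount = proteasome at 0.15 nM in the dispensed enzyme solution | schedule = 30 min compound-proteasome preincubation then 25 min substrate reaction, room temperature | measured by = fluorescence, ex 355 nm, em 460 nm | benchmarks = no-proteasome wells (full inhibition) and compound-free wells (no inhibition)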
* marks the source's active call; other numbers are inactive results; i = inactive; ? = inconclusive; . = no result given; & = joins results of further samples.

SMILES	FGF22 binding	E coli growth	Vif TR-FRET	AF4-AF9 inh	RanGTP-Imp inh	HNF4A DNA FP	UCH37 inh
C=C(C)COc1ccc(-c2nc(N)nc(C)c2Oc2ccccc2OC)c(O)c1	.	0.77	-63%	.	-1.4	-2.1	2.4
COCCCC1CCN(C(=O)c2cc(COc3ccc(C)nc3)on2)CC1	i	0.71	12%	0.6	4.8	3.1	4.2
CCOc1ccc(CNC(=O)c2ccc(Sc3ccc(Cl)cc3)c(NC(C)=O)c2)cc1OC	i	0.67	-14%	-3.1	-2.0	1.0	2.7
COc1cc(N)c(Cl)cc1C(=O)OCC(=O)N(C)C1CCCCC1	i	0.66	-3%	-2.6	.	2.4	4.9
CN(Cc1ccccc1)S(=O)(=O)c1ccc(Cl)nc1	.	0.7	-3%	.	5.6	-2.3	-3.2
FC(F)C(F)(F)c1cc(-c2ccccc2)n[nH]1	i	0.63	28%	-3.8	24	-0.1	3.4
COCCc1nc2ccc(C(=O)N3CCCCC3COC)cc2o1 (centres undefined)	i	0.7	.	-0.6	-4.3	-1.1	0.6
CC(C)CNC(=O)C1(C)CCCN1Cc1ccc(S(C)(=O)=O)cc1 (centres undefined)	i	.	.	-4.3	.	-1.6	.
COc1cc(O)c(CCC(=O)c2ccc(OC)c(OC)c2)c(OC)c1	i	0.65	.	-2.0	-2.1	3.7	-1.4
CCOC(=O)C1(C)CCCCCN1C(=O)c1ccco1 (centres undefined)	i	.	.	-1.1	.	6.0	.
O=C(NNC1=NC2(CCCC2)Cc2ccccc21)c1ccncc1	i	0.67	-3%	0.5	-1.9	-0.7	4.8
Cc1ccc(CNC(=O)C2CC(c3cccc([N+](=O)[O-])c3)=NO2)cc1 (centres undefined)	i	0.64	1%	-3.2	0.6	2.2	-0.6
Cc1cc(C)nc(NS(=O)(=O)c2ccc(NC(=O)c3cc(-c4ccccc4)nc4ccccc34)cc2)n1	i	0.73	-12%	0.9	9.8	-1.5	2.6
Cn1c(SCC(=O)Nc2ccccc2)nnc1-c1ccc2nonc2c1	i	0.69	?	-1.2	3.5	6.3	1.7
CC(=O)c1ccc(N2C(=O)C3C4C=CC(CC4)C3C2=O)cc1 (centres undefined)	i	0.67	-10%	1.0	-0.1	-2.3	4.2
CCCN=C1N(CC)C[C@@H]2[C@@H]3C(=O)N(C)C(=O)[C@@H]3[C@](C)(C(=O)OC)N12	.	0.7	-3%	-0.9	.	2.4	1.2
O=C(NCc1cn(-c2ccccc2)nc1-c1ccccc1)c1cc([N+](=O)[O-])cc([N+](=O)[O-])c1	.	0.73	23%	.	1.4	-2.8	4.4
Cc1ccc(C(=O)COC(=O)CNC(=O)c2ccco2)cc1	.	0.65	-4%	.	-1.1	-8.0	1.0
Cc1cc(C)nc(SCc2nnc(SCC(=O)Nc3c(C)cccc3C)o2)n1	.	0.75	20%	.	3.0	-0.2	2.2
COC(=O)c1cc(NC(=O)c2ccccc2)c(=O)oc1C	i	0.72	-5%	0.0	-4.6	2.8	5.1
O=C(NCCCN1CCOCC1)c1ccc(NC(=O)C2COc3ccccc3O2)cc1 (centres undefined)	i	0.65	?	2.7	-0.1	-0.8	-0.2
COc1ccnc(Oc2ccc(F)cc2)c1C(=O)N/C=N/OCc1ccc(Cl)cc1Cl	i	0.67	30%	1.8	1.7	1.2	4.2
NC(=O)C1CCN(C(=O)CN(c2cccc(C(F)(F)F)c2)S(=O)(=O)c2ccccc2)CC1	.	0.71	0%	.	6.1	1.1	2.1
OCC1(CCc2ccccc2)CCCN(CCCc2ccccc2)C1 (centres undefined)	i	0.65	.	-2.1	-2.0	0.6	2.0
CCN(CC)S(=O)(=O)c1ccc(Cl)c(C(=O)Nc2cc(C)nn2-c2ccccc2C(F)(F)F)c1	.	0.74	.	.	0.9	.	1.9
SMILES	FGF22 binding	E coli growth	Vif TR-FRET	AF4-AF9 inh	RanGTP-Imp inh	HNF4A DNA FP	UCH37 inh
Cc1sc(-c2ccncc2)nc1OC(=O)c1cc(Cl)cc(Cl)c1	.	0.71	0%	.	-23	-4.3	-1.3
COc1ccc(OCCSc2nc(C)c(Cc3ccccc3)c(=O)[nH]2)cc1	i	0.7	0%	0.0	1.5	-0.8	3.2
CN(C(=O)c1cc2ccccc2cc1O)C1CCCCC1	i	0.7	-1%	-6.8	?	-0.8	0.5
Cc1ccc(SCC(=O)NCCc2ccc(F)cc2)cc1	i	0.68	-3%	-4.9	1.7	1.1	1.4
Cc1oc(S(=O)(=O)N2CCOCC2)cc1C(=O)Nc1ccc(Cl)cc1	i	0.68	0%	.	?	-12	-0.2
COc1ccc(CC(N)c2csc(Nc3ccc(C(C)=O)cc3)n2)cc1 (centres undefined)	i	.	.	0.3	.	2.6	.
CCc1ccc(OC(C)C(=O)Nc2ccc(S(=O)(=O)Nc3cc(C)on3)cc2)cc1 (centres undefined)	i	0.73	.	-1.5	5.0	1.1	4.3
COC(=O)c1ccccc1NC(=O)c1ccc(NS(C)(=O)=O)cc1	.	0.73	19%	.	5.0	-1.2	-4.7
O=C(c1cc(-c2ccccn2)nc2ccc(Br)cc12)N1CCN(S(=O)(=O)c2ccccc2)CC1	.	0.68	-12%	-0.8	-2.9	2.2	4.7
Cc1ccc(NC(=O)CN(C)S(=O)(=O)c2ccc3c(c2)n(C)c(=O)c(=O)n3C)cc1	i	0.7	3%	-3.5	0.2	-6.9	0.3
CC(C)(C)c1ccc(OCC(=O)N(c2ccccn2)C2CCCCC2)cc1	i	0.69	0%	2.7	-0.3	3.9	2.4
O=C(NC(=S)N1CCN(C/C=C/c2ccccc2)CC1)c1ccc(F)cc1	i	0.65	.	5.4	-0.2	5.2	6.4
COC(=O)c1cc(NC(=O)N2c3ccccc3Sc3ccccc32)cc(C(=O)OC)c1	i	0.72	1%	1.2	-3.6	-1.7	-2.1
Cc1cc(C)c(S(=O)(=O)Nc2ncccc2C)c(C)c1	i	0.69	-6%	1.5	-0.8	1.4	-9.3
Cc1ccc(S(=O)(=O)N2CCN(C(=O)N3CCCCC3)CC2)c(C)c1	i	.	.	-0.9	.	1.5	.
CCOC(=O)c1c(NC(=O)CSc2nnc3ccccn23)sc2c1CCC2	.	0.71	20%	2.0	-4.3	-3.5	4.7
COc1ccccc1N1CCN(C(=O)CCNC(=O)Cn2ccc3ccccc3c2=O)CC1	i	0.71	-5%	0.8	2.3	0.9	1.2
O=C(CCC(NC(=O)OCc1ccccc1)C(=O)O)OCc1ccccc1 (centres undefined)	i	0.64	-2%	-3.4	1.9	4.9	0.8
CC1(C)CC(NS(=O)(=O)c2ccc(Cl)cc2)CC(C)(C)N1	i	0.6	-3%	-3.2	2.4	2.8	1.0
Cc1cccc(C)c1NC(=O)Cn1nc(-c2ccccc2)nc1-c1ccccc1	.	0.71	20%	.	0.4	1.6	1.5
OCC[C@H]1C[C@H](O)[C@@H](O)[C@@]2(CCc3ccccc3CO2)O1	i	.	.	2.4	.	-0.9	0.6
Cc1ccc(C(=O)OCC(=O)NC(C)C2CC3CCC2C3)cc1N (centres undefined)	i	0.7	.	-7.0	.	0.3	-3.0
NNC(=O)COc1ccc(C2SCCS2)cc1	i	0.73	-10%	-2.5	0.1	-2.3	3.1
COc1ccc(C2=NN(C(=O)c3cccs3)C(c3ccc(OC)cc3)C2)cc1 (centres undefined)	i	0.76	.	2.1	1.7	2.3	-15
CCc1nc2ccc(C(=O)NCCc3c[nH]c4ccccc34)cn2c1N(C=O)CCC(C)C	i	.	.	6.2	.	0.5	.

Some of these compounds in order of length of the SMILES, high to low:
SMILES	FGF22 binding	E coli growth	Vif TR-FRET	AF4-AF9 inh	RanGTP-Imp inh	HNF4A DNA FP	UCH37 inh
CCc1ccc(OC(C)C(=O)Nc2ccc(S(=O)(=O)Nc3cc(C)on3)cc2)cc1 (centres undefined)	i	0.73	.	-1.5	5.0	1.1	4.3
CCOC(=O)c1c(NC(=O)CSc2nnc3ccccn23)sc2c1CCC2	.	0.71	20%	2.0	-4.3	-3.5	4.7
Cc1cc(C)c(S(=O)(=O)Nc2ncccc2C)c(C)c1	i	0.69	-6%	1.5	-0.8	1.4	-9.3

(listing goes on)
SMILES	FGF22 binding	E coli growth	Vif TR-FRET	AF4-AF9 inh	RanGTP-Imp inh	HNF4A DNA FP	UCH37 inh
CNc1c(-n2cc(C(=O)OC)c(C(=O)OC)c2C(=O)OC)c(=O)n(C)c(=O)n1C	i	0.69	.	-6.3	-2.1	0.6	3.6
Cc1ccc(O)c(NC(=O)c2ccc3c(c2)C(=O)N(CC(C)C)C3=O)c1	i	0.7	.	1.2	7.5	1.1	3.6
O=C(NC(=S)N1CCc2ccccc21)c1ccccc1	.	0.67	?	.	2.7	-1.9	0.9
O=C(CSc1ncn[nH]1)Nc1ccc(Br)cc1Br	i	0.66	.	-1.4	.	-2.5	0.4
Cc1ccccc1C(=O)Nc1ccc2c(c1)OCO2	.	0.69	5%	.	-4.4	-5.8	-0.2
O=C(Nc1ccc(S(=O)(=O)N2CCCC2)cc1Cl)C1=COCCO1	.	0.69	-4%	.	1.0	1.2	3.4
COCCCNC(=O)COC(=O)c1ccc(-c2nc3ccccc3s2)s1	i	0.73	1%	0.3	3.6	3.5	-210
Cn1nnnc1Sc1ncnc2scc(-c3ccc([N+](=O)[O-])cc3)c12	i	0.64	.	14	.	2.3	2.1
COc1cccc(CSc2nnc(-c3ccncc3)n2N)c1	i	0.66	-2%	3.3	-4.0	2.6	1.1
O=C(CCNS(=O)(=O)c1c(Cl)cccc1Cl)N1CCCC1	i	0.69	-6%	-1.7	.	-3.6	-0.7
CCn1c(CNc2nc(-c3ccccc3)cs2)nnc1SCC(=O)NCc1ccccc1	.	0.72	1%	.	-1.6	0.9	0.9
COc1cc(C(=O)C(=O)N2CCN(c3ccc(C)cc3)CC2)cc2ccccc12	i	.	.	2.5	.	-0.8	.
Cc1nc(C)c(-c2csc(NCc3ccco3)n2)s1	i	0.67	7%	9.1	1.3	-0.1	1.7
Cc1cccc(Cn2c(N3CCCCC3C)nc3c2c(=O)[nH]c(=O)n3C)c1 (centres undefined)	i	0.73	2%	8.9	0.3	-1.4	7.1
Cc1ccc(C2CCN(C(=S)NC(C)C)C2)cc1 (centres undefined)	i	0.68	-11%	-34	2.2	2.9	0.5
CCC(=O)Nc1cc(=O)[nH]c2ncnn12	.	0.66	4%	.	2.6	-3.5	1.4
C=CC(=O)N1CCCC(Nc2nc(Nc3ccc(N(C)C(=O)CC)cc3C)nc3nc[nH]c23)C1 (centres undefined)	i	0.71	.	5.5	.	1.6	1.1
CC(C)n1c(=O)c2ccccc2n1Cc1cn(CCc2c[nH]c3ccccc23)nn1	i	.	.	2.1	.	6.9	.
Cc1cc2cc(CN(CCCN3CCOCC3)C(=O)NC3CCCCC3)c(=O)[nH]c2cc1C	.	0.72	-8%	.	0.7	-4.0	-11
CCC1CCCCN1CCCNC(=O)CC1Oc2ccccc2NC1=O (centres undefined)	i	0.76	-3%	3.3	-4.4	-1.1	5.2
COCCCNCC(O)C(F)(F)F (centres undefined)	i	0.71	.	-1.0	3.0	2.1	0.2
C[C@H](CO)N1C[C@H](C)[C@@H](CN(C)C(=O)Nc2ccc(C(F)(F)F)cc2)Oc2ccc(NC(=O)C3CC3)cc2C1=O	i	0.7	2%	-1.8&1.7	.	-0.5	4.3
CCc1ccc(NC(=O)Nc2ccon2)cc1	i	0.7	-6%	1.3	2.3	-2.5	0.3
OC(c1ccc(F)cc1)c1ncc(-c2cccc3ccccc23)[nH]1 (centres undefined)	i	.	.	11	.	-1.3	.
CSCC[C@H](NC(=O)OCc1ccccc1)C(=O)O	.	0.73	4%	.	7.7	-2.0	2.5
CCOC(=O)c1cc(NC(=O)c2cccnc2)ccc1N1CCOCC1	i	0.71	3%	-0.2	1.5	4.8	3.2

This is a subset; count on the stated rates, not on these rows.
